UCH37 inh: inhibitors of human UCH37 deubiquitinase, primary screen, biochemical, Ub-AMC cleavage, fluorescence; hit rate 0.33% among 330,000; purified proteasome/UCH37; Ubiquitin carboxyl-terminal hydrolase isozyme L5 (Homo sapiens), Q9Y5K5; inhibition, % (no concentration beside the values);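 active = mean of two replicates above 20%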;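 also: 0% = compound-free wells with enzyme and 100% = wells lacking proteasome; stock transfer was 100 nL into about 20 µL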
Target sequence (Q9Y5K5 whole entry, looked up): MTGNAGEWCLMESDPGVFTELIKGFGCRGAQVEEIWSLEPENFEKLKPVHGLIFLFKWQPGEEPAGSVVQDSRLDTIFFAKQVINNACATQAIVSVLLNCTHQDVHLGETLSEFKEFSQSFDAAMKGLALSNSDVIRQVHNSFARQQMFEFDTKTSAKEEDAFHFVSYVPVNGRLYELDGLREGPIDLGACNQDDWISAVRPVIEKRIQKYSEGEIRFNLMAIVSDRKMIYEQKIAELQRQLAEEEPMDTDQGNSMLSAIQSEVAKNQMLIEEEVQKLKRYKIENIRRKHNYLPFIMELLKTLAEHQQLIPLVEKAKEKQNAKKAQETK
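Signal – fluorescence, ex 355 nm, em 460 nm · System – Proteasome-bound UCH37 · Input – 0.15 nM proteasome as dispensed · Timing – 30 min preincubation with enzyme, 25 min cleavage at room temperature · Read-out basis – percent inhibition of cleavage signal versus uninhibited and no-proteasome wells · Medium – Tris-HCl pH 7.4 with ATP-MgCl2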
FGF22 binding: binders of human FGF22 protein, primary screen, FGF22 synaptogenesis inhibitor project, biophysical, thermal shift, single point | Fibroblast growth factor 22 (Homo sapiens), Q9HCT0 | recombinant FGF22 thermal shift, SYPRO orange fluorescence; percent of sucrose octasulfate shift, DMSO zero | hit rate 1.5% among 340,000 | calls only at 9.99 µM;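 active = melting point raised past a set limit in the mean and every replicate; inconclusive = no clear call; three in four hits are not shown here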
Target sequence (Q9HCT0 whole entry, looked up): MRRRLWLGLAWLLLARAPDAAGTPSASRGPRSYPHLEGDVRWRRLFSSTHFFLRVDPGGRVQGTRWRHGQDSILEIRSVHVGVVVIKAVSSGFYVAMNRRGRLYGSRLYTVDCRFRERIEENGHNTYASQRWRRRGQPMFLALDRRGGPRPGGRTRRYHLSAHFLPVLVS
RanGTP-Imp inh: inhibitors of RanGTP-importin-beta interaction, primary screen, biochemical, FRET, CFP-Ran, YFP-importin-beta, homogeneous; Ran GTPase (GTP-bound) - importin-beta complex; cell-free CFP-Ran/YFP-importin-beta FRET ratio; inhibition, % (concentration not given with the values); hit rate 1.1% among 300,000; AID 2216, 2009;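 active = most replicates above 15%; inconclusive = exactly half above 15%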;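 also: 0% = DMSO wells and 100% = Ran loaded with GDP instead of GTP; wells of about 40 µL received 100 nL stock; the first replicate is given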
AF4-AF9 inh: inhibitors of AF4 peptide binding to AF9, primary screen, biochemical, AlphaScreen, biotin-AF4 peptide, FLAG-AF9, single point | inhibition, % at 10 µM | hit rate 0.47% among 350,000 | AID 651704, 2012;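 active = every replicate reaching a set inhibition limit, whatever the replicate mean, cut at about 25% in these data; inconclusive = mean inhibition reaches that limit but some replicates miss it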;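 also: 0% = plate neutral control median and 100% = total signal loss; the record names both 10 and 1 µM as test concentration; the first replicate is given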
Vif A3G: inhibitors of Vif binding to APOBEC3G peptide, primary screen, biochemical, TR-FRET, GST-Vif 1-94, biotin-A3G peptide, dose response retest (AID 1117319); Virion infectivity factor (Human immunodeficiency virus type 1 group M subtype B (isolate …; one-dose inhibition, %; IC50 in µM for titrated hits; TR-FRET GST-Vif / biotin-A3G peptide binding; higher % means a stronger effect; test concentration not given here; strong numbers were not always called active; hit rate 0.57% among 260,000;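 active = above the screen mean plus three standard deviations and confirmed in dose response; inconclusive = results disagree or hit not tested in dose response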;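 also: Vif residues 1-94 fused to GST binding biotinylated APOBEC3G peptide 110-148; 0% = full assay without inhibitor and 100% = GST in place of GST-Vif; retest series ran down from 100 µM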
HNF4A DNA FP: change in binding of human HNF4A to DNA, primary screen, biochemical, fluorescence polarization, FITC-DNA; 1 h; activity change, % at 10 µM; hit rate 0.3% among 360,000; AID 1224865, 2016; in the data active = activity change above about 30%, passing the limit was not always enough;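 also: controls were the assay level and a saturating level of protein; the project sought stronger binding though the title names inhibitors; some compounds called inactive have numbers as strong as hits; positive values seem to mean higher polarization but the record does not say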
Target sequence (P41235 whole entry, looked up): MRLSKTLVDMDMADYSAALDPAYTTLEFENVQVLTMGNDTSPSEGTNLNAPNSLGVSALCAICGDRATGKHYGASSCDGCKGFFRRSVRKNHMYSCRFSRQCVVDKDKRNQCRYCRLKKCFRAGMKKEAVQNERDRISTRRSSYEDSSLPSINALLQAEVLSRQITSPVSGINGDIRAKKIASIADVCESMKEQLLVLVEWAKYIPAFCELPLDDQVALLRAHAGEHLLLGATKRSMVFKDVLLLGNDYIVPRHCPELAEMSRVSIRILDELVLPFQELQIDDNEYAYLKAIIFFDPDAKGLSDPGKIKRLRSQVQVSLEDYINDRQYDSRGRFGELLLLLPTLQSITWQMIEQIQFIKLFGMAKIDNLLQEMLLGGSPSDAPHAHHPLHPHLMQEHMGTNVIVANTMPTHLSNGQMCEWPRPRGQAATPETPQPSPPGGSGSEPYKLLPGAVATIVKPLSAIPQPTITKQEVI
E coli growth: E. coli growth inhibition, primary screen, OD600; Escherichia coli growth, 23 h; hits give low values; OD600 absorbance (test concentration not listed); hit rate 0.21% among 330,000; AID 1053175, 2014;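 active = OD600 absorbance below the run mean of sample wells minus 3.6 SD, in any replicate, cut at about 0.56 in these data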;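 also: stock transfer was 300 nL into about 60 µL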
* hit, by the source's call; i = inactive; ? = inconclusive; . = no result given; & = joins results of further samples. The list is partial; rates above refer to the full screens.

The opening three compounds as a preview:
SMILES	UCH37 inh	FGF22 binding	RanGTP-Imp inh	AF4-AF9 inh	Vif A3G	HNF4A DNA FP	E coli growth
COc1nc(SCC(=O)Nc2ccccc2Cl)nc(N(C)C)n1	4.3	i	-1.2	-2.1	-5.1%	1.1	0.703
COc1ccc(C(=O)NN/C(C)=C/C(=O)c2ccccc2)cc1	3.7	i	6.6	-0.3	.	0.1	0.727
O=C1CC(SC2=NCCS2)C(=O)N1c1cccc(Cl)c1Cl (stereo unspecified)	5.3	i	-0.8	-12.2	.	2.8	0.661

Main list, from the start:
SMILES	UCH37 inh	FGF22 binding	RanGTP-Imp inh	AF4-AF9 inh	Vif A3G	HNF4A DNA FP	E coli growth
COc1nc(SCC(=O)Nc2ccccc2Cl)nc(N(C)C)n1	4.3	i	-1.2	-2.1	-5.1%	1.1	0.703
COc1ccc(C(=O)NN/C(C)=C/C(=O)c2ccccc2)cc1	3.7	i	6.6	-0.3	.	0.1	0.727
O=C1CC(SC2=NCCS2)C(=O)N1c1cccc(Cl)c1Cl (stereo unspecified)	5.3	i	-0.8	-12.2	.	2.8	0.661
CCOc1ccc(CC(C(=O)NN)C(=O)NN)cc1CN(C)C	1.1	.	-4.0	.	8.0%	1.5	0.649
COc1ccc(N2CCN(C(=O)NC3CCCCC3)CC2)cc1	2.4	.	8.9	.	2.2%	-1.3	0.758
CCOC(=O)c1c(NC(=O)Cn2nc(C(=O)O)c3ccccc3c2=O)sc(CC)c1C	0.0	i	-0.4	-1.3	-3.0%	1.7	0.717
O=C(c1cc(C2CCCCN2C(=O)OCCF)on1)N1CCOCC1 (stereo unspecified)	.	i	.	-4.5	.	2.4	.
Cn1nc(C(F)(F)F)c(C(=O)Nc2cccc(C(F)(F)F)c2)c1SCc1ccc(Cl)cc1	-0.9	.	?	.	8.7%	3.0	0.738
COc1ccccc1NS(=O)(=O)c1ccc(C)c(C(=O)NCCCN2CCCC2=O)c1	0.3	i	2.6	0.6	5.4%	0.5	0.611
C=CCOCC(O)CS(=O)(=O)Cc1ccc(Cl)cc1 (stereo unspecified)	1.7	.	-2.3	.	5.5%	0.0	0.673
CCC(C)(C)n1nnnc1C(c1ccc(C)cc1)N1CCCC1 (stereo unspecified)	4.8	.	5.0	6.1	-3.3%	1.9	0.702
O=C(O)Cc1ccc2[nH]c3ccc(CC(=O)O)cc3c2c1	-1.6	.	5.7	.	-2.4%	1.3	0.801
Cn1c(N)c(C(=O)N/N=C/c2ccccc2)sc1=S	.	i	-2.3	-1.1	-1.9%	-2.5	.
O=C(COC(=O)c1nn(-c2ccccc2)c(=O)c2ccccc12)NC1CCS(=O)(=O)C1 (stereo unspecified)	-1.6	.	-0.1	.	0.5%	1.6	0.67
Nc1ccc(-c2nc(-c3ccccc3)nc3ccccc23)cc1	-233.9	i	9.2	-16.2	-12.4%	3.0	0.676
COc1ccc(C2C(C(=O)N3CCOCC3)=C(C)NC3=C2C(=O)CC(C)(C)C3)c(OC)c1 (stereo unspecified)	-403.5	.	?	.	-1.6%	5.5	0.677
c1cc(-c2ccc3nncn3c2)ccc1CN1CCOCC1	.	i	.	-3.3	.	-5.3	.
CN1CCN(CCCNC(=O)c2ccc3c(c2)N(Cc2ccc(F)cc2)CCS3)CC1	i	i	2.7	17.5	.	1.8	0.709
O=C(CCN1CCN(CCO)CC1)Nc1ccc(Br)cc1	1.4	.	0.9	-1.8	.	0.7	0.701
COC(=O)c1ccc2c(=O)n(CCCCCC(=O)NCCNC(C)=O)c(=O)[nH]c2c1	-16.3	i	-2.6	5.3	24.8%	-0.5	0.684
CCCN(CCC)CCCNC(=O)c1cc2c(=O)n(C)c3ccccc3c2n1C	-6.9	i	0.9	-0.8	-2.1%&-4.1%	0.9	0.733
O=C(CNC(=O)c1ccc(Cl)cc1Cl)OCN1C(=O)c2ccccc2C1=O	1.0	i	?	-1.1	-1.1%	-0.2	0.645
CCOC(=O)N1CCC(N2CC34C=CC(O3)C(C(=O)Nc3ccc(OCC)cc3)C4C2=O)CC1 (stereo unspecified)	1.7	i	3.1	-1.9	-0.8%	1.4	0.741
COc1ccc(NC(=O)CN(c2ccc(OC)cc2)S(=O)(=O)c2ccc(OC)c(OC)c2)cc1	1.2	i	-1.4	-3.8	7.0%	-0.4	0.672
O=C(COC(=O)C1CCC1)NCc1ccc(Cl)cc1Cl	1.6	i	-1.1	-1.6	-1.9%	-4.0	0.708
CCc1c(C)[nH]c(=S)c(C#N)c1C	7.9	.	-2.8	.	67.1%	-0.9	0.734
O=C(NCc1ccc(F)cc1)c1ccc(N2CCOCC2)c([N+](=O)[O-])c1	2.3	i	-3.4	-1.5	14.8%	3.8	0.683
O=C(Cn1c(S(=O)(=O)Cc2ccccc2)nc2ccccc21)N1CCCCC1	4.4	i	3.0	-0.1	-7.6%	-0.1	0.658
CC(=O)c1cc2c(cc1N(C(=O)Cn1nnc3ccccc31)C(C(=O)NCCC(C)C)c1cccnc1)OCO2 (stereo unspecified)	-1.0	i	-1.4	-2.4	0.6%	-1.3	0.593
O=C1c2ccccc2-c2onc3ccc(Oc4ccccc4)c1c23	5.4	.	-17.3	.	?	4.0	0.66
OCCN1CCN(CCOc2cccc(Cl)c2)CC1	2.6	.	3.5	.	10.3%	-0.9	0.703
COc1ccc(Oc2nc(SC)nc3ccsc23)cc1	-4.7	.	-1.4	.	0.1%	-0.6	0.761
NC(=O)c1ccc(NCCc2ccco2)cc1	.	i	.	-0.9	.	4.1	.
O=C(COC(=O)c1cccc(Br)c1)Nc1cccc(S(=O)(=O)N2CCCCC2)c1	.	i	.	1.9	-4.7%	1.8	.
Cc1ccc(SCC(=O)NCc2ccccc2C)cc1	1.5	i	4.2	-8.7	.	1.9	0.698
O=C1CCC(C(=O)N2CCCCCCC2)CN1Cc1cccc(C(F)(F)F)c1 (stereo unspecified)	4.6	.	12.8	-0.3	-2.2%	2.4	0.72
COc1ccc(N(CC(=O)NCCSCc2c(F)cccc2Cl)S(C)(=O)=O)cc1OC	4.9	i	3.3	-2.5	-3.4%	-1.6	0.732
COc1ccc(C(=O)N/N=C(\Cc2ncc[nH]2)c2ccccc2)cc1	.	i	-4.3	-9.2	21.6%	1.8	.
COC(=O)c1ccccc1NC(=O)C1CC(c2ccc(F)cc2)=NO1 (stereo unspecified)	-1.0	i	3.8	6.2	-2.8%	4.8	0.715
CON=C1CCN(c2ncc(C(F)(F)F)cc2Cl)CC1	0.4	.	1.4	.	-7.2%	-2.2	0.676
CC1CCCCN1C(=O)COC(=O)c1cc(Cl)c2c(c1)OCO2 (stereo unspecified)	3.2	i	.	1.6	6.9%	1.0	0.722
COc1cccc(NC(=O)CN(C)C(=O)CNC(=O)c2ccc3ccccc3c2)c1	-1.3	.	0.5	-0.6	11.8%	-0.7	0.632
Cn1[nH]c(=O)c(Cl)c(Cl)c1=O	6.4	.	?	.	-1.8%	-3.1	0.817
O=C(O)CN(Cc1ccccc1)S(=O)(=O)c1ccc2c(c1)OCCO2	-0.5	i	3.9	0.9	-7.9%	-1.3	0.682
Cc1cc(C)cc(NC(=S)NC(=O)CCN2C(=O)c3ccccc3C2=O)c1	6.1	.	-0.4	.	9.7%	0.9	0.72
C[C@@H]1CN([C@@H](C)CO)C(=O)Cc2cc(NC(=O)Nc3ccc4c(c3)OCO4)ccc2O[C@@H]1CN(C)C(=O)NC1CCCCC1	0.4	i	.	7.6	-3.3%	6.7	0.681
Cc1ccc(C(=O)NN=C2CCCC2)cc1C	4.5	i	4.7	-2.1	.	-3.8	0.706
Cc1ccc(NC(=O)c2sc3nc(N)c(C#N)cc3c2N)cc1	0.4	i	-0.1	0.8	32.9%	8.0	0.716
CCOC(=O)C1CCCN(c2cc(C)nc3cc(-c4ccc(Cl)cc4)nn23)C1 (stereo unspecified)	-24.9	.	5.4	.	-20.8%	-1.0	0.791
CCN(CC)c1ccc(S(=O)(=O)N2CCOCC2)cc1NC(=O)COC(=O)/C=C/c1ccc(C)o1	2.7	i	2.3	11.4	0.9%	4.0	0.732

Further structures follow:
SMILES	UCH37 inh	FGF22 binding	RanGTP-Imp inh	AF4-AF9 inh	Vif A3G	HNF4A DNA FP	E coli growth
NC(=O)N/C=C1\CCCOC1=O	.	i	.	-0.3	-0.1%	-2.6	.
COc1ccc(N(CC(=O)NCc2cccs2)S(=O)(=O)c2ccc(C(C)=O)cc2)cc1	.	.	.	6.8	1.9%	7.7	.
Cc1nn(-c2ccccn2)c2c1C(=O)CC(C)(C)C2Br (stereo unspecified)	0.9	i	-4.6	-0.6	?	5.8	0.704
CC(C)Sc1snnc1-c1ccccc1	4.0	i	-9.5	-2.7	.	-0.8	0.67
Cc1noc(C)c1S(=O)(=O)N1CCC(C(=O)NCCN2CCC(C)CC2)CC1	4.3	.	2.1	.	-1.7%	-4.8	0.745
O=C(Nc1ncccn1)C1c2ccccc2Oc2ccccc21	2.0	i	-2.7	4.2	?	-0.6	0.74
Cc1ccc(NC(=O)CN(C)S(=O)(=O)c2cccc3cccnc23)cc1C	2.4	i	-6.9	-20.4	.	1.7	0.709
OCCN1CCN(c2ncnc3nc[nH]c23)CC1	8.7	i	-6.4	-7.2	4.2%	-0.3	0.725
N/C(=N\OC(=O)c1ccc(Br)o1)c1cccnc1	0.1	i	-4.5	1.5	-5.3%	0.0	0.688
Cc1cc(C)cc(Nc2nc3ccc(C)cc3n3cnnc23)c1	-77.4	i	-1.1	-0.6	.	3.7	0.694
CC(C)(C)c1ccc(CSc2nnc(-c3ccccc3NC(=O)c3ccccc3)o2)cc1	2.0	.	2.4	.	1.2%	0.1	0.693
COCCOc1ccc(C(F)(F)F)cc1N	2.0	i	4.0	-0.3	16.5%	1.4	0.67
COc1ccc(NC(=O)CCN2CCN(S(=O)(=O)c3ccc(OC)cc3)CC2)cc1	1.0	i	-1.1	1.6	6.6%	0.4	0.726
Cc1ccccc1NC(=O)c1onc2c1CCCC2	-1.9	.	-1.2	.	4.7%	-2.5	0.635
Cc1cccc(C)c1NC(=O)CN1C(=O)COc2ccccc21	4.2	i	3.1	-4.6	.	-2.5	0.614
CCc1ccc(C(=O)CN2C(=O)NC(C)(CCc3ccccc3)C2=O)cc1 (stereo unspecified)	-0.5	.	-2.7	.	.	-1.6	0.682
COc1cc2c(cc1OC)C1c3ccc(OC)c(OC)c3OCC1(O)C2 (stereo unspecified)	0.8	i	.	-0.9	-4.7%	4.8	0.697
O=[N+]([O-])c1cccc(-c2nnc(-c3ccccc3F)o2)c1	2.1	i	0.6	-2.4	.	1.3	0.723
O=C(CC1(O)CCCCC1)OC1CCCC1	-0.6	.	.	.	3.1%	0.1	0.693
COc1ccc(NS(=O)(=O)c2ccc(/C=C/C(=O)O)cc2)cc1S(=O)(=O)N1CCOCC1	-0.5	i	0.4	5.0	0.7%	-5.4	0.708
Cc1ccc(C(=O)NC(Cc2c[nH]c3ccccc23)C(=O)O)cc1 (stereo unspecified)	5.3	.	5.6	.	?	-1.3	0.702
S=c1[nH]nc(Cn2cnc3ccccc32)n1-c1ccccc1Cl	2.4	i	-1.1	-8.8	.	-7.5	0.737
CCc1ccc([C@@H]2C[C@H]3[C@@H](CN2S(=O)(=O)c2ccc(C)cc2)C(=O)C[C@@H](c2ccccc2F)N3S(=O)(=O)c2ccc(C)cc2)cc1	.	i	.	0.3	-2.8%	3.5	.
